Assay outcomes as filed in PubChem BioAssay.
gsp antagonist = antagonizes gsp, the McCune-Albright syndrome mutation | gsp-mutant cells, cAMP HTRF, 30 min; control for the full effect not named in the record | Potency, µM (series often up to 76.9 µM), for the others: top-dose activity change, negative = inhibition, hits mostly inhibitors | 340,000 tested, 0.4% active; active = falling curve of any shape with a large fitted effect; inconclusive = falling curve, mostly with a smaller effect; inactive = flat or rising curve; cell line not stated here;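 further: intracellular cAMP measured with PDE inhibitor Ro 20-1724 present during compound exposure; potency means the concentration at half of the fitted maximal effect; on the % scale 0 is the no-effect control and ±100 the full control effect; nearly all actives have a fitted effect of over 65% in size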
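HTRF cAMP read-out (cAMP-d2 plus anti-cAMP antibody-K in lysis buffer, 30 min RT). Before lysis, cells are exposed to compounds with […] for 30 min at 37C in DPBS containing Ca/Mg, BSA and Tween 20.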
D2 agonist = human D2 receptor agonism in beta-arrestin assay | AID 624465 | 360,000 tested, 0.084% active | DiscoveRx PathHunter D2 beta-arrestin, luminescence, 90 min; 100% = 57 uM dopamine signal | activation, % (concentration not given with the values); in the data active = activation above about 40%; inconclusive = about 15% to 40%; inactive = below about 15%; further: compound concentration not given in the record; the text of the record calls up to 30% inactive
Target sequence (P14416 whole entry, looked up): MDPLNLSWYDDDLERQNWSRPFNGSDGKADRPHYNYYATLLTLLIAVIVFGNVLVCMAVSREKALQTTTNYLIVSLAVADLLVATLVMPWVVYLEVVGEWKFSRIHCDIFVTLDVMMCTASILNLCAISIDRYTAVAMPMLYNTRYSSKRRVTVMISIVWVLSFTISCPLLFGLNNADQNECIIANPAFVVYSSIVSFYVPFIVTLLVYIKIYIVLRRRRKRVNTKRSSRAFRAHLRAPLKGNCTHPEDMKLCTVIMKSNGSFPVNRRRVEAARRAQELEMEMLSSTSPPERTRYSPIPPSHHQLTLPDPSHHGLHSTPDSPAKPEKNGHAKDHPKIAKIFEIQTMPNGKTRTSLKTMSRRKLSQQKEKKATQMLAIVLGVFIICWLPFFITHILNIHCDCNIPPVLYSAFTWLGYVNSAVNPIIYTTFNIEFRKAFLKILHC
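DiscoveRx PathHunter D2 beta-arrestin cells (2,100/well) attached overnight, then compound-stimulated 90 min at 37 C in HBSS/10 mM HEPES/0.1% Tween-20 buffer; beta-galactosidase complementation read by luminescence after 1 h at ambient temperature. Dopamine 57 uM final (EC100) as control.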
PINK1 expr mod = changes PINK1 expression; PINK1 immunofluorescence, high-content cytometry, 24 h; Potency, µM (titrated, usually from 76.6 µM), without a hit: top-dose activation (PINK1 increase), hits mostly activators; 410,000 tested, 0.2% active; AID 624263; active = well fitted activation curve with a large enough effect; inconclusive = small, poorly fitted or top-dose-only effect; inactive = flat fitted curve, though single readings scatter; cell line not stated here;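 further: potency means the concentration at half of the fitted maximal effect; % of control where 0% means no effect; nearly all actives have a fitted effect of over 65% in size; a mitochondrial uncoupler was the plate control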
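PINK1 protein, normally rapidly degraded, was detected by immunofluorescence after 24 hour compound treatment of a stable cell line. Titration data (5 concentrations) came from laser-scanning cytometry, with CCCP-treated wells as controls.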
Menin-MLL FL inh = displaces fluorescein MLL peptide from human menin. Fluorescence polarization, fluorescein-MLL peptide displacement from menin. FP activity change, % at 61.4 µM. 290,000 tested, under 10 active; inconclusive = falling polarisation curve, or a change in total fluorescence; inactive = total fluorescence flat and polarisation flat or rising; no compound was filed as active; the % refers to the polarisation; negative = inhibition;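 further: % of control where 0% means no effect; inhibitors lower the polarisation; unlabelled MLL peptide was the positive control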
gsp ag = gsp mutant agonism. gsp mutant cells, cAMP HTRF, 30 min; control for the full effect not named in the record. Potency, µM (series often up to 76.9 µM), inactives show at the top dose activation (cAMP increase), most hits filed as activators. 340,000 tested, 0.13% active. AID 624287; active = well fitted activation curve with a large enough effect; inconclusive = small, poorly fitted or top-dose-only effect, or another doubt; inactive = no such curve, though single readings can be large or run the other way; cell line not stated here;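 further: phosphodiesterase inhibitor Ro 20-1724 added with compounds to block cAMP breakdown; potency means the concentration at half of the fitted maximal effect; nearly all actives have a fitted effect of over 60% in size; about a fifth of the inactives were tested at one dose only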
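Cells in DMEM/10% FBS with G418 were pretreated with compounds in DMSO plus […] (300 uM stock) for 30 min at 37C. cAMP was measured by HTRF (cAMP-d2 plus anti-cAMP antibody-K) after 30 min at room temperature.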
ClpP mod = qHTS Assay for Activators of ClpP. ATP-dependent Clp protease proteolytic subunit (Bacillus subtilis (strain 168)), P80244. purified B. subtilis ClpP, FRET peptide cleavage, 20 min. Potency, µM (highest dose often 57.5 µM), inactives show at the top dose activity change, negative = active. 340,000 tested, 1.9% active. AID 651965, 2013; active = well fitted falling curve with a large enough effect; inconclusive = small, poorly fitted or top-dose-only effect; inactive = no such curve, though single readings can be large or run the other way; further: potency means the concentration at half of the fitted maximal effect; the source files actives as falling curves though it sought activators and does not explain the sign; nearly all actives have a fitted effect of over 65% in size; many hits overshoot -100%
Target sequence (P80244 whole entry, looked up): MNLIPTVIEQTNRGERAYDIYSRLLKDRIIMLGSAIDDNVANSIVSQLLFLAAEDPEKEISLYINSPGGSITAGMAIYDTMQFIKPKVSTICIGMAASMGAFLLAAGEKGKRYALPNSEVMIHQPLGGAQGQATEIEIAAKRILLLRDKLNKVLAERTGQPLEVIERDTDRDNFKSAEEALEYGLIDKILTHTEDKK
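ClpP 10 microg/mL final, pH 8 Tris/KCl buffer with BSA, glycerol, Tween-20; compound pinned in; FRET-FV substrate; RT 20 min; Ex320/Em430; ΔFRET vs ADEP 5.8 microM, DMSO, no enzyme.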
Sfp inh = blocks B. subtilis Sfp PPTase activity; Q9F4F7; Biochemical Sfp PPTase activity, qHTS; Potency, µM, without a hit: max response, negative = inhibition, most hits filed as inhibitors; 310,000 tested, 3.5% active; AID 1490; active means well fitted inhibition curve with a large enough effect; inconclusive means small, poorly fitted or top-dose-only effect, or another doubt; inactive means no such curve, though single readings can be large or run the other way;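 further: the enzyme is Sfp with the accession as filed and its product quenches rhodamine fluorescence; potency means the concentration at half of the fitted maximal effect; 0% = enzyme reaction without inhibitor and -100% = no enzyme wells; top concentration of the series not given in the record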
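Sfp 15 nM + cpd, 15 min RT; start w/ rhodamine-CoA 5 uM, BHQ-2-YbbR 12.5 uM (final); 50 mM Hepes pH 7.6, 10 mM MgCl2, 0.01% NP-40, 0.01% BSA; read 525/598 nm at 0 and 30 min.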
The depositor's hits bear a star; u = inconclusive; x = no result given; [ ] = remark or other dose.

Values run as follows: Sfp inh, gsp antagonist, Menin-MLL FL inh, PINK1 expr mod, ClpP mod, gsp ag, D2 agonist
CC(O)[C@H]1CNC(=O)C(=O)N1CC(C)(C)C (some centres not stated)
  20%, 9%, 0.7, 1.3%, 1.1%, 27%, -0.6
CCOC(=O)c1ccc(-n2c(CN3CCN(CC)CC3)nc3ccc([N+](=O)[O-])cc3c2=O)cc1
  -6%, -14%, -1.5, 2.5%, 0.3%, 7%, 1.3
S=C1NCN(Cc2cccnc2)CN1c1cccc(Cl)c1
  6%, 2%, -0.6, 0.2%, -2.3%, -20%, -5.2
CCOc1ccc(-c2cc(C(=O)NCCCN3CCN(CC)CC3)c3ccccc3n2)cc1
  18%, 9%, 0.4, 0.0%[38.3 µM], u, 2%, -2.4
CC(C)(C)CN1C(N)=NC[C@@H]1Cc1ccccc1
  x, 5%, x, 0.2%, 0.4%, u, -1.9
CCN(CC)C(=O)c1cc2c(=O)c3cc(Cl)ccc3oc2nc1C
  11%, 11%, 8.4, 2.0%, x, 2%[15.4 µM], -2.6
CC(C)CN(C(=O)C(C)N1C(=O)c2ccccc2C1=O)c1c(N)n(Cc2ccccc2)c(=O)[nH]c1=O (configuration not stated)
  x, 7%, x, 1.1%, -1.0%, -70%[inhibitor], -2.0
COc1cc(NC(=O)CSc2nc(=O)n(CCN3CCOCC3)c3c2CCCC3)cc(OC)c1
  x, -12%, x, -3.8%, x, -6%[15.4 µM], 1.3
CCOC(=O)c1ccc(NC(=O)c2n[nH]c(=O)c3ccccc23)cc1
  13%, 0%, 8.4, 0.4%, x, 9%[15.4 µM], 0.3
CC1CN(Cc2nc3c(c(=O)[nH]c(=O)n3C)n2CCCc2ccccc2)CC(C)O1 (configuration not stated)
  1%, -17%, -1.1, -1.3%, -0.8%, u, -3.0
O=C(NC1CCCCC1)N1CCN(C(=O)c2ccco2)CC1
  9%, 14%, 1.2, 14%[38.3 µM], 0.5%, 2%, -1.6
COc1ccc(Br)cc1/C=N/NC(=O)Cn1nnnc1N
  -7%, -5%, -1.0, 4.2%, x, -5%[15.4 µM], -5.9
COc1ccc(N2CCN(c3nc(=S)n(-c4ccccc4)c(C)c3C(C)=O)CC2)cc1
  0%, -9%, 23, x, 0.9%, 8%, -1.4
CCOC(=O)c1cccc(NC(=O)CSc2nnc(COc3ccccc3)n2CC)c1
  15%, u, 0.7, 19%[38.3 µM], -2.5%, 26%, -0.5
COCCNc1nnc(SCC(=O)NC(=O)c2ccc(Cl)cc2)s1
  x, 7%, x, -2.8%, x, -9%[15.4 µM], -3.0
O=C(NNc1ccc(F)cc1)c1c(F)cccc1Cl
  8%, 14%, 1.5, -0.3%, 0.0%, 2%[15.4 µM], -2.4
O=C(Nc1ccc2ccccc2c1)c1cccc(F)c1
  8%, -6%, 4.7, 3.6%, -17%, -1%, 0.3
COc1ccc(N(CC(=O)N/N=C/c2ccc(C(=O)O)cc2)S(=O)(=O)c2ccc(NC(C)=O)cc2)cc1
  -2%, 1%, 1.4, 0.1%, 1.4%, -23%, 1.6
COc1ccc(S(=O)(=O)N2CCN(C(=O)C3CCCO3)CC2)cc1 (configuration not stated)
  8%, 1%, x, -0.4%, 0.9%, 17%, 0.9
COc1ccccc1C(=O)NNC(=O)c1cccc(O)c1
  16%, 5%, 2.4, 2.0%, -0.3%, -32%, -0.1
CC(Sc1n[nH]c(-c2cccs2)n1)C(=O)N1CCCC1 (configuration not stated)
  x, 3%, x, 0.3%, x, -2%, 2.9
COc1ccc2nc(N3CCCC3)[nH]c2c1
  2%, 3%, 4.3, u, -3.3%, -56%[inhibitor], 1.1
Cc1ccc(S(=O)(=O)NCC(=O)N(CC(=O)NC(C)(C)C)Cc2cccs2)cc1
  -11%, 6%, 2.0, 12%, 0.3%, 12%, 1.1
COc1cc(NC(=O)C2CCN(S(=O)(=O)c3cccs3)CC2)c(C(=O)O)cc1OC
  x, x, x, 0.6%, -30%, 23%, -2.7
CCc1ccc(CNC(=O)c2ccc(OC3CCN(C(C)=O)CC3)c(OC)c2)nc1
  0%, 4%, x, -3.1%, -4.0%, 22%, -6.9
CCn1c(NC(=O)c2cccs2)c(-c2cccs2)c(=O)c2ccccc21
  11%, -6%, 4.4, 13%, -0.1%, 14%, -2.2
Cc1ccc(C)c(Nc2ncccc2C(=O)NCc2cccs2)c1
  20%, -10%, -2.6, 4.9%, -2.1%, -5%, -1.4
CSc1oc(-c2cccs2)nc1S(=O)(=O)c1ccccc1
  89µM*, -18%, 7.6, 1.8%, -27%, u, -1.3
CCOC(=O)N1CCC(N(CCOC)C(=O)Nc2ccc(Cl)c(Cl)c2)CC1
  -3%, -14%, -3.2, 2.4%[38.3 µM], 0.9%, -60%[inhibitor], 1.1
CCOC(=O)C1CCN(C(=O)CCc2nnc3ccc(N4CCC(C)CC4)nn23)CC1
  13%, -8%, 2.9, 0.2%, 0.4%, u, -2.9
Brc1cc2c(cc1C1OCCO1)OCO2
  x, 9%, x, 3.4%, -6.2%, 18%, -1.7
Cc1cc2nnc(SC(C)C#N)n2c2ccccc12 (configuration not stated)
  -5%, 14%, 2.1, -2.1%, -1.5%, 19%, -2.7
COc1ccc(C(C#N)N2N=C(C)CC2(C)C)cc1 (configuration not stated)
  21%, 7%, 5.7, 0.3%, -0.3%, 22%, -10
COc1cc(-c2[nH]ncc2CN2CCCC2c2nonc2C)cc(OC)c1OC (configuration not stated)
  9%, 5%, 0.9, -0.4%, -0.3%, 27%, 0.5
COc1ccc(C2CC(C(F)(F)F)n3nc(C(=O)NCCN4CCOCC4)cc3N2)cc1 (configuration not stated)
  -5%, 16%, 1.9, -4.9%[38.3 µM], -1.9%, u, 0.8
CCNc1oc(COc2cccc(C)c2)nc1C#N
  6%, 8%, 1.7, 4.8%, 1.5%, 1%[15.4 µM], -4.4
CC(C)(C)c1ccc(C(=O)Nc2cccc3c(=O)[nH][nH]c(=O)c23)cc1
  3%, 4%, u, -3.6%, -2.9%, -5%[15.4 µM], 2.6
N/C(CN1CCCCC1)=N\S(=O)(=O)c1cc(Cl)cc(Cl)c1
  6%, -5%, 2.4, 0.8%, -0.3%, -26%, -6.7
CCCOc1ccc(/C=N/NC(=O)C(C)Sc2ccccn2)cc1OCC (configuration not stated)
  -2%, -17%, 2.3, 0.4%, x, 1%[15.4 µM], -1.5
CCc1noc(C)c1C(=O)N1CCOCC1
  7%, 6%, 1.3, 6.0%[38.3 µM], -0.6%, -53%[inhibitor], 0.3
c1coc(CNc2nc(-c3ccncc3)cs2)c1
  17%, 7%, 0.5, 0.0%, -2.8%, 0%, 2.3
COc1ccccc1N1CCN(C(C)C(=O)N2CC(C)OC(C)C2)CC1 (configuration not stated)
  -75%, 5%, 0.4, -1.0%, x, 14%[15.4 µM], -2.9
CSCCC(NC(=O)COc1ccccc1)C(=O)N(C)CC(=O)Nc1ccc(C)cc1 (configuration not stated)
  x, -3%, x, -0.5%, -0.7%, -24%, -3.3
CCN(CC(=O)Nc1ccc2c(c1)OCCO2)C(=O)CCc1ccccc1Cl
  x, -3%, x, 1.5%, -0.9%, 21%, -2.3
COCCn1nnnc1CN(Cc1cc2cc(OC)c(OC)cc2[nH]c1=O)C1CCCC1
  -3%, -1%, u, 0.8%, u, 35%, 1.1
Cc1cccc(CC(=O)Nc2cc(=O)n(C)c(=O)n2C)c1
  4%, 4%, -2.5, 5.2%, 1.8%, 29%, -2.2
CCNC(=O)C1(C)CCN1C(=O)Cc1ccc(C(C)C)cc1 (configuration not stated)
  x, x, x, 2.9%, 0.8%, x, -4.6
CC(C)(C)NC(=O)C12CCC(C)(c3nc4ccccc4nc31)C2(C)C (configuration not stated)
  1%, -13%, 0.4, 9.2%[38.3 µM], 0.6%, -25%, -3.5
Cc1ccc(OCC(=O)N/N=C\c2ccc(O)c([N+](=O)[O-])c2)c([N+](=O)[O-])c1
  -8%, -12%, -2.3, 1.3%, x, -38%[15.4 µM], -8.3
Cc1cccc(C(C)C)c1NC(=O)COC(=O)C1CC(=O)N(Cc2ccccc2)C1 (configuration not stated)
  x, -2%, x, 1.9%, -5.8%, 12%, -0.1

Additional compounds follow.
Values run as follows: Sfp inh, gsp antagonist, Menin-MLL FL inh, PINK1 expr mod, ClpP mod, gsp ag, D2 agonist
NC(=O)CSc1nc2cc(S(=O)(=O)N3CCOCC3)ccc2o1
  x, -2%, x, -0.2%, x, 3%, -2.0
Cc1ccc(Oc2ccccc2NC(=O)CSCC(=O)Nc2cc(C)on2)cc1
  x, -4%, x, -0.5%, 1.0%, 1%[15.4 µM], -0.6
O=C(Nc1ccccc1N1CCCC1)c1ccc([N+](=O)[O-])o1
  -18%, -5%, x, -1.6%, -1.3%, 5%, 12
N#C/C(=C\c1ccco1)C(=O)Nc1ccc(S(N)(=O)=O)cc1
  13%, -6%, -0.7, -1.5%, -2.7%, 1%, 1.7
COc1ccc(/C=N/NC(=O)C2C3CCCCC32C)cc1OC (configuration not stated)
  5%, 14%, -0.6, 3.6%, -2.9%, u, 0.3
Cc1ccc(NC(=O)N2CCN(C)CC2)cc1NC(=O)N1CCN(C)CC1
  7%, 22%, -5.9, 0.2%, x, 0%[15.4 µM], -1.4
Cc1ccc(S(=O)(=O)N/N=C2/CC(c3ccccc3)Oc3ccccc32)cc1[N+](=O)[O-] (configuration not stated)
  3%, u, -0.6, 8.5%, -14%, -5%, -3.3
O=C(NN=Cc1ccc(Cl)cc1Cl)c1ccccc1
  x, x, x, 1.0%, 0.3%, 8%, 1.9
CC(OC(=O)c1cccc(-n2cnnn2)c1)C(=O)c1ccccc1 (configuration not stated)
  x, 10%, x, -1.9%, x, 10%[15.4 µM], 2.3
Nc1ccc(N=Nc2ccccc2)c2ccccc12
  -15%, 11%, 2.6, 4.4%, x, -6%, -1.2
